Cruzain inh Det – qHTS Assay for Promiscuous and Specific Inhibitors of Cruzain (with detergent); Cruzipain (Trypanosoma cruzi), P25779; purified cruzain, Z-FR-AMC fluorescence, 0.01% Triton; Potency, µM, without a hit: max response, negative = inhibition, usual class: inhibitors; actives 0.43% (n = 200,000); AID 1478, 2009; active means well fitted curve in the direction sought with a large enough effect; inconclusive means small, poorly fitted or top-dose-only effect, or another doubt; inactive means no such curve, though single readings can be large; an effect the other way counts as inactive or inconclusive;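 further: plate controls were neutral wells for no effect and buffer without enzyme for full effect; nearly all actives have a fitted effect of over 40% in size; top concentration of the series not given in the record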
Target sequence (P25779 123-467 limits assumed): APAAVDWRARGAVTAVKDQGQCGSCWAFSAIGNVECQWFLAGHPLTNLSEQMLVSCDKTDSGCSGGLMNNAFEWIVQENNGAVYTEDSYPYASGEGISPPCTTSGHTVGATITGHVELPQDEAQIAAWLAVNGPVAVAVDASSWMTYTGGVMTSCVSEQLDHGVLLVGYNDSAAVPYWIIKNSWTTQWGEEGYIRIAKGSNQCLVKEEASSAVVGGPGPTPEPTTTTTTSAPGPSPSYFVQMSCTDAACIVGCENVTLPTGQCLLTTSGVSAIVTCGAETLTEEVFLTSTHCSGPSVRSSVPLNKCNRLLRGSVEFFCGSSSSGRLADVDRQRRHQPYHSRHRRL
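Read-out: AMC fluorescence (360 nm excitation, 450 nm emission), four reads over 2 min, first-to-third difference used. Conditions: cruzain 1.5 nM, Z-FR-AMC 2 uM, pH 5.5 acetate, 5 mM DTT, 0.01% Triton X-100.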
NS1 function inh – qHTS Assay for Inhibitors of Influenza NS1 Protein Function; S. cerevisiae slowed by influenza A NS1, growth recovery by OD600; Potency, µM (top dose mostly 46.1 µM), for the others: at the highest dose activity, positive = more growth; actives 0.4% (n = 270,000); AID 2326, 2010; further: actives are rising curves; nearly all actives have a fitted effect of over 50% in size
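In this qHTS, NS1 from influenza A is expressed in budding yeast, where it slows growth. Cells are switched from glucose to 2% galactose medium (pH 6.0, -URA), treated with compound, and growth recovery is read at OD600.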
SARS PLpro yeast – qHTS of Yeast-based Assay for SARS-CoV PLP; S. cerevisiae expressing SARS-CoV PLpro, growth rescue; control for the full effect not named in the record; Potency, µM (doses to about 32.9 µM), for inactives: at the highest dose activity, positive = growth rescue; actives 0.19% (n = 330,000); AID 485353, 2010; further: 0% is about no effect; nearly all actives have a fitted effect of over 55% in size; growth read by luminescence after 48 h
RE007 growth inh – qHTS Assay for Inhibitors of the HIV-1 protein Vpr | S. pombe RE007 Vpr strain, BacTiter-Glo ATP luminescence, 24 h; control for the full effect not named in the record | Potency, µM (doses to about 92.2 µM), without a hit: top-dose activity change, negative = less growth | actives 0.21% (n = 360,000) | AID 651644, 2012; active = well fitted falling curve with a large enough effect; inconclusive = small, poorly fitted or top-dose-only effect; inactive = no such curve, though single readings can be large or run the other way;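 further: on the % scale 0 is the no-effect control and ±100 the full control effect; nearly all actives have a fitted effect of over 50% in size; the assay follows cell death caused by Vpr and the record does not say whether a fall means rescue or toxicity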
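Fission yeast RE007 carrying one integrated HIV-1 vpr copy, seeded at OD 0.01 in PMG+AL medium with 23 nL pinned compound. Grown 24 h at 30 degrees; viability read by BacTiter-Glo luminescence after 5 min.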
StopGo reporter – High Throughput Screening for Foot and Mouth Disease Virus Antivirals | actives 1.2% (n = 410,000) | Potency, µM (titrated, usually from 57.9 µM), for the others: at the top dose signal change, negative = less light | human cells with a luciferase reporter of 2A StopGo recoding; control for the full effect not named in the record | AID 1159524, 2015; active = well fitted falling curve with a large enough effect; inconclusive = small, poorly fitted or top-dose-only effect; inactive = no such curve, though single readings can be large or run the other way; tested in HEK293T cells; further: on the % scale 0 is the no-effect control and ±100 the full control effect; nearly all actives have a fitted effect of over 45% in size; luciferase light after 4 h
MARV entry inh – qHTS for inhibitors of binding or entry into cells for Marburg Virus. Marburg virus pseudotyped entry inhibition, cell reporter; control for the full effect not named in the record; about a third of the inactives were read at about 46 µM. Potency, µM (titrated, usually from 37.8 µM), inactives show at the top dose activity change, negative = inhibition, usual class: inhibitors. actives 1.8% (n = 300,000). AID 540276, 2011; active = well fitted inhibition curve with a large enough effect; inconclusive = small, poorly fitted or top-dose-only effect, or effect the other way; inactive = flat fitted curve, though single readings scatter; tested in HEK293 cells; about a fifth of its hits are not listed in these tables; further: on the % scale 0 is the no-effect control and ±100 the full control effect; luciferase read-out
LASV entry inh – qHTS for Inhibitors of binding or entry into cells for Lassa Virus | Lassa virus pseudotype entry inhibition, cell reporter; control for the full effect not named in the record | Potency, µM (top dose mostly 37.9 µM), inactives show top-dose activity change, negative = inhibition, hits mostly inhibitors | actives 1.2% (n = 300,000) | AID 540256, 2011; active means well fitted inhibition curve with a large enough effect; inconclusive means small, poorly fitted or top-dose-only effect, or effect the other way; inactive means flat fitted curve, though single readings scatter; tested in HEK293 cells; further: on the % scale 0 is the no-effect control and ±100 the full control effect; nearly all actives have a fitted effect of over 50% in size; luciferase read-out
Cruzain noTriton – qHTS Assay for Promiscuous and Specific Inhibitors of Cruzain (without detergent). purified cruzain, Z-FR-AMC fluorescence, no detergent. actives 2.3% (n = 200,000). Cruzipain (Trypanosoma cruzi), P25779. Potency, µM, without a hit: max response, negative = inhibition, hits mostly inhibitors; active means well fitted curve in the direction sought with a large enough effect; inconclusive means small, poorly fitted or top-dose-only effect, or another doubt; inactive means no such curve, though single readings can be large; an effect the other way counts as inactive or inconclusive;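 further: plate controls were enzyme without inhibitor for no effect and buffer without enzyme for full effect; nearly all actives have a fitted effect of over 40% in size; top concentration of the series not given in the record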
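Detergent-free condition (0.00005% Triton X-100) in acetate buffer pH 5.5 with DTT. 1.5 nM enzyme and compound were pre-mixed 15 min, then 2 uM Z-FR-AMC substrate added; reaction progress from fluorescence change between first and third reads (60 s).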
Active calls of the source: *; ? = inconclusive; nt = not tested or not shown; & = joins results of further samples; [ ] = dose if it differs, or a comment. Unless noted, the call rests on the fitted dose curve; in most records, active means well fitted rising curve with a large enough effect; inconclusive means small, poorly fitted or top-dose-only effect; inactive means no such curve, though single readings can be large or run the other way. Potency means the concentration at half of the fitted maximal effect.

Results follow in this order: Cruzain inh Det, NS1 function inh, SARS PLpro yeast, RE007 growth inh, StopGo reporter, MARV entry inh, LASV entry inh, Cruzain noTriton
O=C(Nc1ccnn1C1CCN(Cc2ccc(CO)o2)CC1)c1ccc2c(c1)OCO2
→ nt, -1%, -8%, 1%, -10%, 9%, 0%, nt
CC(C)CC(=O)Nc1nc2c(s1)CC(C(C)(C)C)CC2 (stereo unspecified)
→ -0.6%, nt, nt, nt, 37%[activator], ?, 7%[46.1 µM], 7%
COc1ccccc1CN(C(=O)c1ccco1)C(C(=O)NC1CCCC1)c1ccncc1 (stereo unspecified)
→ 2.0%, -15%, -7%, 9%, -21%, -22%, 3%, 0%
O=C1CC(N2CCOCC2)C(=O)N1CCN1C(=O)CC(N2CCOCC2)C1=O (stereo unspecified)
→ -2.6%, 0%, 0%, -7%, 11%, 10%, ?, 5%
Cc1ccc(S(=O)(=O)n2nc(OC(=O)c3ccco3)cc2N)cc1
→ nt, 8%, nt, -7%, 0%, 5%, 8%, nt
Cc1cccc(NC(=S)N2CCC(C(=O)c3ccc(F)cc3)CC2)c1C
→ -2.4%, 13%, 4%, 5%, nt, 0%, 14%, 3%
CCOc1ccc(CNC(=O)c2ccc3oc(=O)n(Cc4ccccc4)c3c2)cc1
→ -3.9%, nt, nt, nt, ?, nt, 5µM*, 7%
COc1ccc2c(c1)-c1nc(N)sc1CC2
→ nt, -45%, -5%, ?, 27%, -2%[46.1 µM], 17%[46.1 µM], nt
CC(C)CCn1nnnc1C(C(C)C)N1CCC(C(N)=O)CC1 (stereo unspecified)
→ -3.6%, 1%, 7%, -7%, -22%, 3%, ?, 2%
Cc1cccc(NC(=O)Nc2ccc3c(c2)OCO3)n1
→ nt, -5%, -1%, -8%, 40%[activator], nt, nt, nt
Cc1cc(NC(=O)CCC(=O)N(c2cccc(F)c2)C(C(=O)NC2CCCC2)c2ccccc2)no1 (stereo unspecified)
→ nt, 18%, -2%, 9%, 10%, 1%[46.1 µM], -5%, nt
CCn1cc(C(=O)N2CCN(c3ccccc3F)CC2)c(=O)c2cc(S(=O)(=O)N(C)C)ccc21
→ 6.7%, nt, nt, nt, 12%, -5%[46.1 µM], -15%[46.1 µM], 11%
Cc1nc(S/C(=C/c2ccc(-c3cc(Cl)ccc3C)o2)C(=O)O)n[nH]1
→ nt, 5%, -2%, 1%, 3%, nt, nt, nt
CC(C(=O)Nc1ccc2c(c1)OCO2)c1ccc([N+](=O)[O-])cc1 (stereo unspecified)
→ nt, 17%, 0%, 8%, -14%, -8%[46.1 µM], 2%, nt
O=C1c2cccnc2-c2ncccc21
→ -2.8%, 1%, -2%, 41%, 1%, 2%, 3%, -4%
CCOc1ncccc1C(=O)N(C)CC(=O)Nc1ccc(C)cc1
→ -1.7%, -5%, -24%, 6%, 0%, 11%, -3%, -6%
Cc1ccc(CSc2nc3ccsc3c(=O)n2CCC(C)C)cc1
→ -1.1%, nt, nt, nt, -29%, nt, 29%[46.1 µM], -6%
CCOC(=O)CN(C(=O)CN1CCC(n2nnc3cc(C)ccc32)CC1)c1ccccc1
→ 5.1%, -7%, 16%, 8%, -25%, 1%, 0%, 4%
C=C(C)CN(CC)C(=O)CC1C(=O)NCCN1CC(C)(C)C (stereo unspecified)
→ nt, 1%, 2%, 1%, -9%, nt, nt, nt
CC(=O)NNc1ncnc2c1cnn2-c1ccc(C)cc1
→ nt, nt, -6%, -2%, 24%, -2%[46.1 µM], 26%, nt
Cc1ccc(-c2c(C(=O)NCc3ccccc3)oc(=O)c3ccccc23)cc1
→ 2.4%&-7.2%, 9%, -13%, 18%, ?, 4%&4%, -22%[46.1 µM], -5%&-3%
Cc1ccn2cc(CCNS(=O)(=O)c3ccc4c(c3)CCCC4)nc2c1
→ -4.3%, -8%, -13%, -1%, -16%, -16%, 11%, -3%
O=C(Nc1ccccc1)c1cccc(N2C(=O)CCC2=O)c1
→ 2.2%, 3%, 3%, -1%, -10%, ?, 5%, -2%
CCOC(=O)N1CCN(CCC(=O)Nc2ccc(OC)cc2OC)CC1
→ 1.8%, -1%, -21%, -2%, 1%, 11%, -11%, -3%
CCc1sc(C(=O)Nc2ncccc2C)cc1C
→ nt, -7%, -13%, -6%, 22%, 7%[46.1 µM], -9%, nt
CCN(CC)S(=O)(=O)c1ccc(C(=O)Oc2coc(CSc3nc(C)cc(C)n3)cc2=O)cc1
→ -19%, -1%, -16%, 10%, 0%, ?, -5%, 29%
COc1ccc2cc(C3C(C#N)=C(N)OC(C)=C3C(C)=O)c(Cl)nc2c1 (stereo unspecified)
→ nt, 5%, 0%, -13%, -14%, 4%[46.1 µM], 21%, nt
O=C(COc1ccccc1F)Nc1ccc2nc(SCCOc3ccccc3)sc2c1
→ -1.7%, nt, nt, nt, -8%, -4%[46.1 µM], -20%[46.1 µM], ?
OCCC1CN(Cc2cnc(-c3ccc(Cl)cc3)nc2)CCN1C1CCCC1 (stereo unspecified)
→ nt, 5%, 0%, -20%, ?, ?, -5%, nt
COc1ccc(S(=O)(=O)N2CCNC(=O)CC2)cc1
→ nt, 2%, -1%, -11%, -11%, nt, nt, nt

Further entries follow:
Results follow in this order: Cruzain inh Det, NS1 function inh, SARS PLpro yeast, RE007 growth inh, StopGo reporter, MARV entry inh, LASV entry inh, Cruzain noTriton
Cc1ccc2nc3c(cc(C#N)c(=O)n3CCN3CCOCC3)c(=O)n2c1
→ -14%, -5%, -4%, nt, nt, nt, nt, -11%
O=[N+]([O-])c1cccc2ncccc12
→ nt, 2%, 2%, -14%, -12%, nt, nt, nt
COc1ccccc1C1CC(=O)Oc2cc(C)cc(C)c21 (stereo unspecified)
→ -5.9%, nt, 16%, -10%, -19%, nt, nt, 2%
O=C(Nc1ccccc1)c1ncoc1-c1ccc(Cl)cc1
→ nt, -1%, -1%, 12%, 31%[activator], nt, nt, nt
O=C(NCN1C(=O)C2C3C=CC(C3)C2C1=O)OC1CCCCC1 (stereo unspecified)
→ 3.7%, 3%, -5%, 1%, 0%, 22%, 0%, -3%
Cc1ccc(S(=O)(=O)N2CCC(C(=O)N3CCC[C@H]3C(=O)NCc3ccccc3)CC2)cc1
→ 3.6%, -6%, 2%, -13%, -11%, -32%&-32%, -17%, 20%
CS(=O)(=O)N(CC(=O)NCCSC1CCCCC1)c1ccc2c(c1)OCO2
→ -2.9%, -7%, 9%, 0%, -11%, ?, -22%, -2%
COc1ccc(CCNC(=O)C/C(C)=N/NC(=O)C2CCCCC2)cc1OC
→ -2.6%, 3%, 4%, 15%, -14%, 4%, 3%, 8%
CC(=O)Nc1c(O)nc(SCC(=O)Nc2sc3c(c2C#N)CCCCCC3)[nH]c1=O
→ -1.1%, 27%, -9%, 12%, -6%, 9%, -5%, -6%
COc1ccc(C(=O)NCC(C)NC(=O)c2ccc(OC)c(OC)c2)cc1OC (stereo unspecified)
→ nt, nt, nt, -3%, -16%, -2%, 24%, nt
O=C(CN1CCN(Cc2ccc(F)cc2)CC1)NCCc1ccccc1
→ nt, 10%, 6%, 0%, -3%, -17%, ?, nt
O=C(COc1ncnc2ccccc12)c1ccc(Cl)cc1
→ nt, -29%, 1%, -11%, 26%, nt, 16%, nt
C/C(=N\NC(=S)NCc1ccccc1)c1ccccc1F
→ nt, nt, 23%, -15%, 30%, ?, ?, nt
Cc1ccccc1/C(N)=N/OC(=O)c1ccc(F)cc1
→ nt, -62%, -3%, -10%, 8%, nt, nt, nt
O=C(CCCc1ccccc1)NCCCc1ccccc1
→ nt, -43%, 2%, 3%, -7%, 10%, 12%, nt
Cc1ccc(S(=O)(=O)NCCCCCC(=O)NCCc2ccccc2)cc1
→ nt, -5%, 2%, 6%, 17%, nt, nt, nt
COc1ccc(/C=C2/Sc3ccc(C(=O)N4CCOCC4)cc3NC2=O)cc1OC
→ nt, 5%, -1%, 19%, 2%, nt, nt, nt
COc1ccc2c(c1)CCc1cc(C(=O)N3CCN(c4ccc(N5CCOCC5)nn4)CC3)sc1-2
→ -16%, -18%, -11%, -8%, ?, nt, nt, ?
Cc1ccc(S(=O)(=O)NCCNC(=O)C2CCCNC2=O)cc1 (stereo unspecified)
→ 3.5%, -7%, -4%, -19%, 0%, -1%, 18%, 7%
CN(c1ccccc1)c1ccc(/C=N/NC(=O)CC#N)cc1
→ -23%, ?, 9%, 1%, 2%, 13µM*, 15µM*, -14%
O=C(NCCOC(=O)c1ccc(Cl)cc1)c1cccnc1
→ -0.2%, -6%, 0%, 0%, nt, 2%, 7%, -2%
COc1ccccc1CCN=C(N)NS(=O)(=O)c1ccccc1F
→ nt, -3%, -2%, 5%, 9%, ?, 15%, nt
C=CCc1c(C)[nH]c2ccc(C)cc2c1=O
→ 3.1%, -46%, -5%, 1%, 21%, 8%, 20%, -12%
CCc1ccc(NC(=O)COC(=O)c2ccc(Cl)c(S(=O)(=O)N3CCCCCC3)c2)cc1
→ -2.8%, 24%, 13%, 9%, 0%, 2%, 9%, ?
CCSc1nc2c(c(=O)[nH]c(=O)n2C)n1CC(O)COc1ccc(Cl)cc1 (stereo unspecified)
→ -0.8%, nt, nt, nt, -17%, nt, -16%[46.1 µM], 6%
O=C(NCC(=O)N(Cc1cccs1)C(C(=O)NC1CCCCC1)c1ccco1)c1ccco1 (stereo unspecified)
→ -1.2%, 11%, -2%, 7%, -13%, ?, 11%, -12%
Cn1c(SCC(=O)Nc2cccc(O)c2)nnc1-c1ccc(S(=O)(=O)N2CCOCC2)cc1
→ 8.8%, -2%, 7%, 15%, 17%, -1%&27%, 2%, -1%
CCC1(c2ccccc2)NC(=O)N(CC(=O)Nc2cccc(C#N)c2)C1=O (stereo unspecified)
→ -2.9%, -6%, 3%, -7%, -2%, 4%, -27%, -7%

Compounds were not picked by outcome; 4.7% or so of the library scored in one or more.
